Compound activity deposited in PubChem by Southern Research Institute.
Mtb H37Rv = Mycobacterium tuberculosis H37Rv growth inhibition, cell based, confirmatory dose response (AID 1949). M. tuberculosis H37Rv growth inhibition. most inactive calls were filed without a number and no value below 0 was filed. one-dose inhibition, % at 10 µg/mL; IC50 in µg/mL for titrated hits. 100,000 tested, 1.6% active;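 active means confirmed in a dose series; inconclusive means about 50% or more but not retested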;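 further: bacteria grown 7 days with compound before Alamar blue readout; 0% = untreated bacteria and 100% = reference antibiotic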
* hit, by the source's call; i = inactive; ? = inconclusive. This is a subset. The share of hits here may be higher or lower than overall.

item	compound	Mtb H37Rv
1	Cc1coc(NC(=O)c2sc3nc(-c4ccncc4)cc(C(F)(F)F)c3c2N)n1	i
2	CCOC(=O)c1c(NC(=O)CSc2nnc(C)s2)sc2c1CCCCC2	i
3	Cc1ccc(OC(=O)CCC(=O)O)cc1	i
4	CCCCOC(=O)c1cccc(NC(=O)C(C(C)C)N2C(=O)c3ccccc3C2=O)c1 (stereo not given)	i
5	COc1cc(NC(=S)N2CCN(c3cccc(Cl)c3)CC2)cc(OC)c1	i
6	CS(=O)(=O)N(CC(=O)Nc1ccc(Br)cc1F)c1ccccc1Cl	i
7	COC(=O)CC1C(=O)NCCN1C(=O)NC1CCCCC1 (stereo not given)	i
8	O=S(=O)(NCc1ccc2c(c1)OCO2)c1ccc(F)cc1	i
9	O=C(CCCn1c(=S)[nH]c2ccccc2c1=O)NC1CCCCC1	i
10	Cc1ccc(SCCC(=O)NCCSc2ccccc2)cc1	i
11	CCOC(=O)Nc1cc(Cl)ccc1Cl	i
12	CN(C)c1ccc(NCc2ccccc2O)cc1	i
13	O=C(Nc1ccc(N2CCOCC2)c2nonc12)c1ccco1	1%
14	CC1(C)Cc2c(sc3ncn4nc(-c5cccc(O)c5)nc4c23)CO1	?
15	Cc1c(NC(=S)NC(=O)c2ccccc2Cl)c(=O)n(-c2ccccc2)n1C	i
16	CCCCc1ccc(NC(=S)NCCN2CCOCC2)cc1	0%
17	CCCOc1cccc(C(=O)Nc2sc3c(c2C(N)=O)CCCC3)c1	i
18	O=C(CNC(=O)c1ccc(F)cc1)N=Nc1c(O)n(Cc2ccc3c(c2)OCO3)c2ccccc12	i
19	COc1ccc(Cl)cc1NC(=O)CSc1nnc(-c2ccc(Br)cc2)o1	i
20	CC1CCN(c2ccc(S(=O)(=O)Nc3cc(C(=O)O)cc(C(=O)O)c3)cc2[N+](=O)[O-])CC1	i
21	COC(=O)c1cc(Cl)c(NC(=O)CCc2ccccc2)cc1OC	i
22	COC(=O)CCC(=O)Nc1ccccc1F	i
23	CC(=O)N(Cc1ccco1)CC1C(C)C=C(C)CC1C (stereo not given)	i
24	CSc1ccccc1NC(=S)Nc1ccc(S(N)(=O)=O)cc1	i
25	CCC(=O)Nc1ccccc1C(=O)Nc1ccc(F)cc1	i
26	COc1ccc(S(=O)(=O)n2cnc3cc(C)c(C)cc32)cc1OC	i
27	c1cc2c(cc1Nc1nc(N3CCOCC3)nc(N3CCOCC3)n1)OCO2	i
28	Cc1ccc(NC(=O)CSc2nnc(C)c3ccccc23)cc1	i
29	CC(C)CN1C(=O)c2ccc(C(=O)Nc3ccc(Cl)cc3C(=O)O)cc2C1=O	i
30	Cc1ccc(-c2nnc(NC(=O)c3ccccc3C)s2)cc1C	i
31	O=C(CSc1ncnc2sc(-c3ccccc3)cc12)NCc1ccccc1	i
32	FC(F)(F)c1ccc(Cl)c(NC(=S)NC2CC2)c1	i

Compounds listed so far with an aryl methoxy group:
item	compound	Mtb H37Rv
5	COc1cc(NC(=S)N2CCN(c3cccc(Cl)c3)CC2)cc(OC)c1	i
19	COc1ccc(Cl)cc1NC(=O)CSc1nnc(-c2ccc(Br)cc2)o1	i
21	COC(=O)c1cc(Cl)c(NC(=O)CCc2ccccc2)cc1OC	i
26	COc1ccc(S(=O)(=O)n2cnc3cc(C)c(C)cc32)cc1OC	i

The list continues.
item	compound	Mtb H37Rv
33	Cc1nc(CSc2nnnn2-c2ccccc2)cs1	i
34	COc1cc(NC(=O)CSc2nc3ccccc3c(=O)n2-c2ccc(Br)cc2)cc(OC)c1	i
35	Cc1cc(C(=O)NC(=S)Nc2ccccc2N2CCOCC2)ccc1[N+](=O)[O-]	5%
36	O=S(=O)(c1ccc2ccccc2c1)N1CCN(CCCOc2ccccc2Cl)CC1	i
37	CC(=O)c1cc2c(cc1NC(=O)C(C)(C)C)OCCO2	i
38	C=CCn1c(SCC(=O)Nc2ccc(Br)cc2)nnc1-c1cccnc1	i
39	CC1(C)C(=O)OC(c2ccccc2F)C2(CCCCC2)C1=O (stereo not given)	i
40	O=C(NCCSc1ccc(Cl)cc1)C1COc2ccccc2O1 (stereo not given)	i
41	Cn1c(SCC(=O)NC(c2ccccc2)c2ccccc2)nnc1-c1ccccc1	i
42	Cc1cc(CNC(=S)Nc2ccc(S(N)(=O)=O)cc2)nn1C	i
43	Cc1ccccc1C(=O)NC(=S)Nc1ccc(C(=O)OC(C)C)cc1	5%
44	COc1ccc(CCNC(=O)CN2C(=O)c3cccc4cccc(c34)C2=O)cc1OC	i
45	Cc1ccc(OCC(=O)N2CCCC2)c(C)c1	i
46	O=C(Nc1ccccc1Cl)c1ccc(OCc2ccccc2)cc1	i
47	O=C(NCc1ccco1)c1ccc(CN2CCC(Cc3ccccc3)CC2)cc1	i
48	Cc1ccc(-n2c(-c3ccccc3F)nc3ccccc3c2=O)cc1	4%
49	Cc1ccccc1NC(=O)CSC1=C(C#N)C(c2ccccc2F)CC(=O)N1 (stereo not given)	i
50	N#Cc1ccccc1CSc1nnc(-c2ccc([N+](=O)[O-])cc2)n1-c1ccccc1	8%
51	CNC(=S)N1CCN(Cc2ccccc2)CC1	i
52	CSc1ccc(S(=O)(=O)Nc2ccc(C(=O)NCc3ccccc3)cc2)cc1	2%
53	O=C(O)c1cc(NC(=O)C2CCCCC2)cc(NC(=O)C2CCCCC2)c1	i
54	CCOc1cc(C=O)cc(Cl)c1OCc1ccc(Cl)cc1Cl	i
55	c1ccc(CSc2ncccn2)cc1	i
56	CCOc1ccc(C(=O)NCCC2=CCCCC2)cc1	i
57	CC1CN(C(=S)NCC2CCCO2)CC(C)O1 (stereo not given)	i
58	Cc1ccccc1-c1n[nH]c(=S)n1Cc1ccccc1	i
59	Cc1cccc(NC(=O)c2cccc(OC(=S)N3CCOCC3)c2)c1	3%
60	CCOC(=O)CCC(=O)Nc1c(C)cccc1C	3%
61	CCOC(=O)CCCSc1nc2ccccc2c(=O)n1-c1ccccc1	i
62	CC(C)Cc1nnc(NC(=O)Cc2ccc(Cl)cc2)s1	i
63	Cc1ccc(NC(=O)CN(c2cccc(F)c2)S(C)(=O)=O)cc1C	i
64	O=C(Cc1ccc([N+](=O)[O-])cc1)OCc1c(F)cccc1Cl	40%
65	CN(CC(=O)Nc1ccc(C(N)=O)cc1)S(=O)(=O)c1ccc2ccccc2c1	i
66	O=S1(=O)N=C(Nc2ccc(O)c(CN3CCCCC3)c2)c2ccccc21	i
67	C=CCn1c(SCC(=O)Nc2ccccc2C(=O)OC)nnc1-c1cccc(OC)c1	i
68	CC1CC(C)CN(CCOc2ccc(Br)cc2Cl)C1 (stereo not given)	4%
69	Fc1cccc(NC(=S)Nc2ccccc2Oc2ccccc2)c1	i
70	Cc1cccc(-n2c(N)cc(=O)[nH]c2=S)c1C	i
71	COc1ccc(C2C(C(=O)Nc3cccc(F)c3)=C(C)NC3=C2C(=O)CC(C)(C)C3)cc1 (stereo not given)	i
72	O=C(CSc1nc(-c2ccccc2)cc(=O)[nH]1)N1CCOCC1	i
73	Cc1ccc(N(CCCCN2C(=O)c3ccccc3C2=O)C(=O)c2ccc(F)cc2)cc1	i
74	CNc1nc(OC)nc(N2CCOCC2)n1	i
75	CCOC(=O)N1CCN(C(=O)CN(c2ccc(I)cc2)S(C)(=O)=O)CC1	i
76	Cc1ccc(C(=O)CCC(=O)Nc2cccc(Cl)c2)cc1C	i
77	O=C(Nc1cccc2cccnc12)c1ccco1	i
78	COc1cccc(C(=O)N2CCN(c3cccc(Cl)c3)CC2)c1	8%
79	O=C(CSc1nnc2c(n1)[nH]c1ccccc12)Nc1cccc(C(F)(F)F)c1	i
80	COC(=O)CSc1nc(NC(C)C)nc(N2CCOCC2)n1	i
81	COc1ccc(C2CC(=O)C=C(Nc3cc(Cl)cc(Cl)c3)C2)cc1 (stereo not given)	i
82	O=C(NCC1COc2ccccc2O1)C(=O)NCC1OCCc2ccccc21 (stereo not given)	1%
83	CCOC(=O)c1ccc(N2Cc3cc(C)c(C)cc3C2)cc1O	i
84	COc1ccc(C2C(C(=O)OCCOc3ccccc3)=C(C)NC3=C2C(=O)CCC3)cc1OCc1ccccc1 (stereo not given)	i
85	CS(=O)(=O)N(Cc1ccc(C(=O)NC2CCCC2)cc1)c1ccccc1	i
86	CC1=C(C(=O)Nc2ccccc2)C(c2ccco2)C(C#N)=C(SCC(=O)Nc2cccc(C(F)(F)F)c2)N1 (stereo not given)	i
87	CCCc1sc(NC(=S)Nc2ccccc2)c(C(=O)OCC)c1C	i
88	COc1ccc(-c2c(C#N)c(SC)nc(C)c2C(=O)Nc2ccccc2)cc1	i

New compounds follow.
item	compound	Mtb H37Rv
89	Cc1ccc(CN(CC(=O)Nc2cc(C)ccc2C)S(=O)(=O)c2ccc(Cl)cc2)cc1	i
90	COC(=O)c1c(NC(=O)CSc2ncnc3sc4c(c23)CCC(C)C4)sc2c1CCC2 (stereo not given)	i
91	COc1ccc(/C=C/C(=O)c2c(C)[nH]c3ccccc3c2=O)cc1	i
92	CCc1nnc(NN2C(=O)c3ccccc3C2(O)c2ccc(Cl)cc2)s1 (stereo not given)	3%
93	Cc1onc(-c2ccccc2Cl)c1C(=O)Nc1ccccc1Oc1ccccc1	i
94	CCOc1ccccc1N(CC(=O)Nc1c(C)cccc1C(C)C)S(C)(=O)=O	i
95	Cc1cc(-c2ccccc2)nc(SCC(=O)Nc2ccc(OC(F)F)cc2)n1	i
96	Clc1ccc(-n2c(SC/C=C/c3ccccc3)nnc2-c2ccncc2)cc1	i
97	CC(C)C(=O)Nc1ccccc1C(=O)OCc1ccc(S(=O)(=O)c2ccccc2)cc1	12%
98	Cc1ccc(SCC(=O)NCc2ccco2)cc1	i
99	CCOC(=O)C(=O)Nc1cccc(Cl)c1	i
100	Cc1cc(Br)ccc1NC(=O)C(=O)NCc1ccc(F)cc1	i
101	FC(F)(F)c1ccc(-n2cnc3ccccc32)nc1	4%
102	COCCOc1ccc(C(=S)N2CCCCC2)cc1OC	i
103	COc1cc(CNc2ncn[nH]2)cc(Br)c1OC	i
104	CC(C)(C)c1ccc(C(=O)CSc2nnc3ccccn23)cc1	3%
105	O=C(CN(Cc1ccc(Cl)cc1)S(=O)(=O)c1ccccc1)N1CCN(c2ccccc2)CC1	i
106	Cc1cc(C)nc(SCC(=O)Nc2nc(-c3ccccc3)c(C)s2)n1	?
107	COc1ccc(C(=O)NC(c2ccco2)c2c(O)ccc3ccccc23)cc1 (stereo not given)	2%
108	O=C(COc1ccc2c3c(c(=O)oc2c1)CCCC3)c1ccc(Cl)c(Cl)c1	i
109	COc1ccccc1Oc1ccc(NC(=O)c2ccccc2[N+](=O)[O-])cc1	0%
110	O=C(O)C1CCN(C(=O)c2ccc(-c3ccccc3)cc2)CC1	i
111	CCC(CC)c1nnc(NC(=O)CCc2ccccc2)s1	1%
112	COC(=O)C1=C(C)N(C)C(=O)NC1c1cc(F)ccc1F (stereo not given)	i
113	Cc1cccc(OC(C)C(=O)Nc2ccc(S(=O)(=O)N3CCCCC3)cc2)c1C (stereo not given)	5%
114	Cc1cc(Br)ccc1OCC(=O)N1CCC(C)CC1	i
115	O=C(CCC(=O)OCc1ccc(Br)cc1)Nc1cccc(Cl)c1Cl	0%
116	O=S(=O)(Nc1cnc2ccccc2c1)N1CCCCCC1	i
117	Cc1ccc(C23CC4CC(CC(C(=O)CN5CCCC5)(C4)C2)C3)cc1	i
118	COc1cccc(CNCc2ccccc2C(F)(F)F)c1OC	i
119	COc1ccc(S(=O)(=O)N(CC(=O)O)c2ccc(C)cc2)cc1Br	i
120	O=C(c1ccc(NC(=S)Nc2ccc(F)cc2F)cc1)N1CCCCC1	4%

An excerpt of these results, as labelled records.
115. O=C(CCC(=O)OCc1ccc(Br)cc1)Nc1cccc(Cl)c1Cl
- Mtb H37Rv: 0%

113. Cc1cccc(OC(C)C(=O)Nc2ccc(S(=O)(=O)N3CCCCC3)cc2)c1C (stereo not given)
- Mtb H37Rv: 5%

114. Cc1cc(Br)ccc1OCC(=O)N1CCC(C)CC1
- Mtb H37Rv: i

117. Cc1ccc(C23CC4CC(CC(C(=O)CN5CCCC5)(C4)C2)C3)cc1
- Mtb H37Rv: i

(continued)
item	compound	Mtb H37Rv
121	Brc1cccc(OCCOCCn2ccnc2)c1	i
122	COc1ccc(Cl)cc1NC(=S)Nc1ccc(Oc2ccccc2)cc1	i
123	Cc1ccc(C(=O)Nc2ccc3oc(-c4ccccc4)nc3c2)cc1	4%
124	COc1ccc(CN2CC(C)N(Cc3ccc(OC)c(OC)c3)C(=O)C2=O)cc1OC (stereo not given)	i
125	CC(NS(=O)(=O)c1ccc(Br)s1)c1ccccc1 (stereo not given)	5%
126	Cc1cccc(N2CCN(C(=O)c3ccncc3)CC2)c1C	i
127	CNC(=O)CN(c1ccc2c(c1)OCCO2)S(C)(=O)=O	i
128	CCCC(C)NS(=O)(=O)c1cccs1 (stereo not given)	i
129	C=CCNC(=O)CN(c1ccccc1)S(=O)(=O)c1ccc(Cl)cc1	i
130	Cc1ccc(NC(=O)Cn2cnc3c2c(=O)n(C)c(=O)n3C)cc1C	i
131	Cc1cc(C)c(C)c(S(=O)(=O)N2CCN(c3ccc(F)cc3)CC2)c1C	i
132	O=C(CSc1nnc(-c2cccnc2)n1-c1ccccc1)Nc1ccc(S(=O)(=O)Nc2ccccn2)cc1	i
133	CCC1(C(=O)c2ccccc2)C2c3cc(Br)ccc3OC(=O)C21C(=O)N1CCOCC1 (stereo not given)	i
134	O=C1CC(N2CCN(c3ccccn3)CC2)C(=O)N1c1ccc(C(F)(F)F)cc1 (stereo not given)	1%
135	CCCCOc1ccc(NC(=O)C(=O)NCCC2=CCCCC2)cc1	i
136	CC(NC(=O)c1ccco1)C1CCCO1 (stereo not given)	i
137	COC(=O)c1cccc(NS(=O)(=O)c2ccc3c(c2)OCCO3)c1C	i
138	O=S(=O)(c1ccc(Br)s1)N1CCCCCC1	i
139	Nn1c(Cn2nnc3ccccc32)n[nH]c1=S	i
140	CCOC(=O)COc1ccc(C#N)cc1	i
